# TRPV1 potentiator – HTS Assay for Compounds that Act as Potentiators of the Vanilloid Receptor 1. TRPV1-expressing cells, Fluo-8 calcium influx, capsaicin EC20 potentiation; host cell line not named in the record; control for the full effect not named in the record. 320,000 compounds, 0.02% hits. potentiation, % at 8.33 µM. Transient receptor potential cation channel subfamily V member 1 (Homo sapiens), Q8NER1; active means potentiation above 80%; inconclusive means 30% to 80%; inactive means below 30%; further: 0% is about no effect
# Target sequence (Q8NER1 whole entry, looked up): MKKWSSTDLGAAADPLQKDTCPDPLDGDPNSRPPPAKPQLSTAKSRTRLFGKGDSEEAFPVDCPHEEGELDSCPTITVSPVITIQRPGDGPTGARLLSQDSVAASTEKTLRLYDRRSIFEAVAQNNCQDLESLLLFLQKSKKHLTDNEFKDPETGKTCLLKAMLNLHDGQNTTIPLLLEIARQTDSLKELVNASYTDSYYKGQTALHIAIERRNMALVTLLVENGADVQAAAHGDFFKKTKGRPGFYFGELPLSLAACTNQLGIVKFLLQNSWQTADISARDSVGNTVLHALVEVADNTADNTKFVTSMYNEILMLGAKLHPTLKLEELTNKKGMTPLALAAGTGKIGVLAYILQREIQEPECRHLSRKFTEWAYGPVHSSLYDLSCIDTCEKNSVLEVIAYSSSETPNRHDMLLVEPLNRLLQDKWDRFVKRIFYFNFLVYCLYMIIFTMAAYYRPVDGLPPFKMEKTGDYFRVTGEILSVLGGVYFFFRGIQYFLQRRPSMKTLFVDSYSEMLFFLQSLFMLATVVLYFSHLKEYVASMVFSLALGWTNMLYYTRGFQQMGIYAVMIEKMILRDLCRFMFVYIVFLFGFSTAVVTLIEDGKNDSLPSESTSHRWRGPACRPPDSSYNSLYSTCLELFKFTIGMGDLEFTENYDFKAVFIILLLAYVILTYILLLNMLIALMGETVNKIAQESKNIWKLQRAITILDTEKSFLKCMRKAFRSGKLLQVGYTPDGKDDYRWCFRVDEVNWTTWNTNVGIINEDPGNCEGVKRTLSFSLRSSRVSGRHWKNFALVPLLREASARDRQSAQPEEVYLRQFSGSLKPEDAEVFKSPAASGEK
#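 TRPV1-expressing cells were cultured overnight at 35.5C and loaded with Fluo-8 calcium dye for 40 to 90 min at room temperature. After a 10 s baseline, compound was added and calcium influx was read kinetically for 3 min (ex 480/em 520 nm).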
# gsp antagonist – qHTS for Antagonists of gsp, the Etiologic Mutation Responsible for Fibrous Dysplasia/McCune-Albright Syndrome: qHTS. AID 624288, 2012. Potency, µM (series often up to 76.9 µM), without a hit: top-dose activity change, negative = inhibition, actives largely listed as inhibitors. 340,000 compounds, 0.4% hits. gsp-mutant cells, cAMP HTRF, 30 min; control for the full effect not named in the record; active = falling curve of any shape with a large fitted effect; inconclusive = falling curve, mostly with a smaller effect; inactive = flat or rising curve; cell line not stated here;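 further: intracellular cAMP measured with PDE inhibitor Ro 20-1724 present during compound exposure; potency means the concentration at half of the fitted maximal effect; on the % scale 0 is the no-effect control and ±100 the full control effect; nearly all actives have a fitted effect of over 65% in size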
#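 G418-selected cells were plated in DMEM/10% FBS for 16-24 h at 37C, then treated with compounds plus the PDE inhibitor […] (300 uM solution added) for 30 min at 37C. Intracellular cAMP was measured by HTRF after 30 min lysis at room temperature.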
# gsp agonist – qHTS for Agonist of gsp, the Etiologic Mutation Responsible for Fibrous Dysplasia/McCune-Albright Syndrome: qHTS; 340,000 compounds, 0.13% hits; AID 624287, 2012; gsp mutant cells, cAMP HTRF, 30 min; control for the full effect not named in the record; Potency, µM (highest dose often 76.9 µM), for the others: at the highest dose activation (cAMP increase), hits mostly activators; active = well fitted activation curve with a large enough effect; inconclusive = small, poorly fitted or top-dose-only effect, or another doubt; inactive = no such curve, though single readings can be large or run the other way; cell line not stated here;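 further: phosphodiesterase inhibitor Ro 20-1724 added with compounds to block cAMP breakdown; potency means the concentration at half of the fitted maximal effect; nearly all actives have a fitted effect of over 60% in size; about a fifth of the inactives were tested at one dose only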
#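 Cells in DMEM/10% FBS with G418 were pretreated with compounds in DMSO plus […] (300 uM stock) for 30 min at 37C. cAMP was measured by HTRF (cAMP-d2 plus anti-cAMP antibody-K) after 30 min at room temperature.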
# Menin-MLL FL inh – qHTS Assay for Inhibitors Targeting the Menin-MLL Interaction in MLL Related Leukemias: Competition With Fluorescein Labeled MLL-derived Peptide | AID 1766, 2009 | Fluorescence polarization, fluorescein-MLL peptide displacement from menin | 290,000 tested, under 10 active | FP activity change, % at 61.4 µM; inconclusive = falling polarisation curve, or a change in total fluorescence; inactive = total fluorescence flat and polarisation flat or rising; no compound was filed as active; the % refers to the polarisation; negative = inhibition;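 further: % of control where 0% means no effect; inhibitors lower the polarisation; unlabelled MLL peptide was the positive control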
# Sfp PPTase inh – qHTS Assay for Inhibitors of Bacillus subtilis Sfp phosphopantetheinyl transferase (PPTase); Potency, µM, inactives show max response, negative = inhibition, actives largely listed as inhibitors; Biochemical Sfp PPTase activity, qHTS; 310,000 compounds, 3.5% hits; active means well fitted inhibition curve with a large enough effect; inconclusive means small, poorly fitted or top-dose-only effect, or another doubt; inactive means no such curve, though single readings can be large or run the other way;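 further: the enzyme is Sfp with the accession as filed and its product quenches rhodamine fluorescence; potency means the concentration at half of the fitted maximal effect; 0% = enzyme reaction without inhibitor and -100% = no enzyme wells; top concentration of the series not given in the record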
#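 After 15 min at room temperature with compound, 15 nM Sfp received 5 uM rhodamine-CoA plus 12.5 uM BHQ-2-ybbR (50 mM Hepes pH 7.6, 10 mM MgCl2). Rate came from the fluorescence difference over 30 min, ex 525/em 598 nm.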
# TRPML1 inh – qHTS for Inhibitors of the Human Mucolipin Transient Receptor Potential 1 (TRPML1). Mucolipin-1 (Homo sapiens), Q9GZU1. TRPML1-inducible cells, Ca2+ dye fluorescence, FDSS; active compounds read low; inhibition of EC80 agonist-evoked calcium signal. activity change, negative = inhibition, % (no concentration beside the values). 390,000 compounds, 0.02% hits. AID 624415, 2012; in the data active means activity change below about -50%; inconclusive means about -30% to -50%; inactive means above about -30%;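 further: stimulus is agonist 54-4 at its EC80 concentration; on the % scale 0 is the no-effect control and ±100 the full control effect; compound concentration not given in the record; the text of the record puts the active cut at -80%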
#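 TRPML1-DL cells, Tet-induced overnight (~16 h, 37 °C) at 1,500 cells/well, were loaded with Ca8 no-wash dye plus quencher for 45-90 min at room temperature. Compounds were pinned during FDSS kinetic reading; agonist 54-4 at EC80 (4 uM final) then added.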
# ClpP mod – qHTS Assay for Activators of ClpP. ATP-dependent Clp protease proteolytic subunit (Bacillus subtilis (strain 168)), P80244. purified B. subtilis ClpP, FRET peptide cleavage, 20 min. Potency, µM (doses to about 57.5 µM), for the others: at the highest dose activity change, negative = active. 340,000 compounds, 1.9% hits; active = well fitted falling curve with a large enough effect; inconclusive = small, poorly fitted or top-dose-only effect; inactive = no such curve, though single readings can be large or run the other way; further: potency means the concentration at half of the fitted maximal effect; the source files actives as falling curves though it sought activators and does not explain the sign; nearly all actives have a fitted effect of over 65% in size; many hits overshoot -100%
# Target sequence (P80244 whole entry, looked up): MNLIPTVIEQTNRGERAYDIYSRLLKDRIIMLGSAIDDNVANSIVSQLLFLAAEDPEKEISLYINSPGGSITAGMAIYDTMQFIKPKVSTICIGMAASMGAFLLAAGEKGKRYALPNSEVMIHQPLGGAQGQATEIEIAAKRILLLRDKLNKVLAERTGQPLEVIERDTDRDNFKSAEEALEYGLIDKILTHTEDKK
#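 FRET quenching reversal measured ClpP activation: 10 microg/mL B. subtilis ClpP at pH 8 with the FRET-FV decapeptide, read at 430 nm after 320 nm excitation. The 20-min minus 0-min signal was scaled between DMSO/no-enzyme wells and ADEP (5.8 microM final).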
# Numbers without * were called inactive; ? = inconclusive; nt = not tested or not shown; & = joins results of further samples; [ ] = dose if it differs, or a comment.
SMILES,TRPV1 potentiator,gsp antagonist,gsp agonist,Menin-MLL FL inh,Sfp PPTase inh,TRPML1 inh,ClpP mod
COc1ccc(Cn2c(=O)[nH]c3cc(C(=O)N4CCN(c5ccc(OC)cc5)CC4)ccc3c2=O)cc1,-1,5%,1%[15.4 µM],4.7,7%,28,-0.3%
CCn1c(CNC(=O)C23CC4CC(CC(C4)C2)C3)nnc1SCC(=O)Nc1nnc(C)s1,0,-3%,-16%,0.3,15%,6,0.1%
CCOc1ccc(-c2nnn(CC(=O)Nc3cccc(OC)c3)n2)cc1OCC,-1,-10%,2%,-0.5,-9%,-1,5.2%
O=C(Cn1c2c(c(=O)n3ncnc13)CCC2)N/N=C/c1ccc(Cl)cc1,8,-4%,7%,5.9,-1%,1,0.9%
Cc1cc(C)n(CCC(=O)N=Nc2c(O)[nH]c3ccc(Br)cc23)n1,-2,-4%,-14%,1.3,9%,-20,1.5%
CCCn1c(N)c(C(=O)CSc2nnc(Cc3cccs3)n2C2CC2)c(=O)n(C)c1=O,5,-14%,18%,nt,nt,-4,1.5%
Cc1ccc(NC(=O)CCC(=O)NNC(=S)Nc2ccccc2)c(C)c1,-12,8%,-15%[15.4 µM],-2.2,10%,0,nt
COc1ccc(Cl)cc1NC(=O)CN1CCC(NC(=O)C2CC2)CC1,6,-11%,-47%[inhibitor],-12,6%,-4,nt
Cc1ccc(CN2CCN(/N=C/c3cccnc3)CC2)c(C)c1,-9,10%,12%,0.5,-21%,14,nt
CC(C)Oc1ccc(/C=N/NC(N)=S)cc1,-15,14%,-5%,2.4,2%,2,-0.3%

# Only gsp antagonist and TRPML1 inh, for 3 of the compounds above:
Structure | gsp antagonist | TRPML1 inh
CCn1c(CNC(=O)C23CC4CC(CC(C4)C2)C3)nnc1SCC(=O)Nc1nnc(C)s1 | -3% | 6
CCOc1ccc(-c2nnn(CC(=O)Nc3cccc(OC)c3)n2)cc1OCC | -10% | -1
O=C(Cn1c2c(c(=O)n3ncnc13)CCC2)N/N=C/c1ccc(Cl)cc1 | -4% | 1

# Additional records.
SMILES,TRPV1 potentiator,gsp antagonist,gsp agonist,Menin-MLL FL inh,Sfp PPTase inh,TRPML1 inh,ClpP mod
Cc1nc(C)n(CC(O)COc2ccc3ccccc3c2)n1 (configuration not stated),-15,2%,10%,3.5,25%,8,-1.7%
COc1ccc(/C=C(\C#N)C(=O)Nc2ccc3[nH]c(=O)[nH]c3c2)cc1,6,-8%,15%,9.0,-12%,-20,4.1%
C/C(=N\NC(=O)c1cccc2ccccc12)c1cccs1,2,1%,5%,0.1,29%,1,0.4%
CCn1cnc2c1c(=O)n(CC(=O)Nc1ccc3c(c1)OC(F)(F)O3)c(=O)n2Cc1ccccc1,5,-17%,-7%,1.0,2%,-3,-0.8%
COc1ccc(NS(=O)(=O)c2cc(Br)cc3c2N(C(C)=O)CC3)cc1,1,7%,6%[15.4 µM],-7.6,2%,-13,-0.5%
COc1cccc(CN2CCC(C(=O)N3CCN(Cc4ccc5c(c4)OCO5)CC3)CC2)c1OC,25,-1%,?,nt,18%,1,18µM*
CCCOC(=O)c1ccc(Oc2cn[nH]c2-c2ccc(OC)cc2O)cc1,-1,-23%,9%,-0.5,19%,-10,-4.5%
CC(NC(=O)Nc1ccccn1)N1C(=O)C2C3C=CC(C3)C2C1=O (configuration not stated),2,10%,-1%,-0.5,12%,-1,2.6%
CCCCCSc1nnc2c(n1)OC(C)N(C(C)=O)c1ccccc1-2 (configuration not stated),1,-6%,0%,1.0,-23%,2,0.0%
Cc1cccc(-c2nc(N)nc(N)n2)c1,-4,15%,-1%[15.4 µM],6.4,14%,12,nt
COc1ccc(NS(=O)(=O)c2ccc(S(=O)(=O)N3CCOCC3)cc2)cc1,-11,-29%,-5%[15.4 µM],0.0,5%,-14,16µM*
COc1ccc(/C=N/NC(=O)CC(=O)NC2CCCCC2)cc1,?,7%,9%[15.4 µM],3.7,-25%,12,nt
Cc1nnc(SCc2c(Cl)cccc2[N+](=O)[O-])s1,-4,6%,-12%,1.9,22%,1,nt
CN(C)C=NC1=NN(c2cccc(C(F)(F)F)c2)CC1,2,-1%,7%,-0.4,6%,-2,-1.8%
O=C(c1ccccc1)c1cccn1CC(=O)N1CCc2ccccc2C1,-4,2%,15%,-4.9,-20%,3,0.3%
O=C(COC(=O)C1(c2ccccc2F)CCCC1)NC1CCS(=O)(=O)C1 (configuration not stated),2,10%,19%,4.0,17%,-15,28µM*
O=C(COc1ccccc1)Nc1nc2cc3c(cc2s1)OCO3,nt,12%,43%,nt,nt,2,-10%
CC(=O)c1ccc(N2CCN(C(=S)Nc3ccc(Oc4ccccc4)cc3)CC2)cc1,-4,-6%,43%,1.2,6%,2,nt
Cc1ccc(C)c(CN2CCC(CNC(=O)CCc3nnc4ccc(N5CCC(C)CC5)nn34)CC2)c1,2,2%,-53%[inhibitor],nt,4%,7,-0.5%
O=C(C(c1ccccc1)c1ccccc1)N1CCC(c2nc(-c3ccccc3Cl)no2)CC1,nt,-8%,-4%,nt,nt,4,-4.0%
CN(C)CCCN(Cc1cc2cc3c(cc2[nH]c1=O)OCO3)C(=S)Nc1cccc(Cl)c1,-3,-4%,-3%[15.4 µM],-2.4,-10%,-2,nt
CC(Oc1ccc(Cl)cc1Cl)C(=O)NCCCN1CCOCC1 (configuration not stated),-14,8%,-53%[inhibitor],-1.0,-8%,10,1.3%
COc1ccc(C)cc1S(=O)(=O)Nc1cccc(C)c1,-1,8%,?,0.1,20%,40,nt
COc1ccc(NC(=O)C2CCCN(c3nn4c(=O)cc(C)nc4s3)C2)c(OC)c1 (configuration not stated),0,-9%,-1%,-1.2,13%,9,-1.9%
CCOC(=O)NC(Nc1ccc(OC)cc1)(C(F)(F)F)C(F)(F)F,-5,11%,-23%,0.0,4%,2,-0.8%
COc1ccccc1CC(=O)O/N=C(\N)Cc1cccc2ccccc12,3,7%,-35%[inhibitor],6.0,12%,-10,-1.7%
Cc1cc(C)nc(CCNC(=O)c2cc(COc3ccccc3)on2)n1,-12,5%,-39%[inhibitor],nt,-2%,-4,2.5%
O=C(NCc1ccccn1)Nc1ccc(Br)cc1Cl,-10,2%,2%[15.4 µM],nt,17%,-20,nt
CC(C)=C(NC(=O)c1ccccc1)C(=O)NCc1ccccc1,12,4%,6%,1.3,23%,-3,nt
COc1ccc(CN(C)C(=O)C2CC(=O)N(c3ccc4c(c3)OCCO4)C2)cc1 (configuration not stated),nt,nt,-5%,nt,nt,-8,0.1%
COc1ccc(/C=N/NC(=O)COc2cc(C)cc(C)c2)cc1COC(C)=O,2,-2%,-54%[inhibitor],-0.3,7%,24,-3.4%
COC(=O)c1cccc(C23CC4(C2)[C@H](CN(Cc2ccc(-c5ccccc5)cc2)[C@@H]4c2ccccc2)C3c2ccccc2)c1 (some centres not stated),?,1%,nt,3.4&7.2,17%&0%,25,-3.7%
CCC(=O)N1CCc2cc(S(=O)(=O)N3CCN(C(=O)c4ccco4)CC3)ccc21,22,0%,2%,8.3,-22%,9,0.0%
CC(C)S(=O)(=O)c1csc(NC(=O)Nc2cccc([N+](=O)[O-])c2)c1Cl,-17,?,2%,1.5,1%,-22,0.1%
COC(=O)c1cc2n(n1)CCCNC2=O,-2,0%,13%,-3.9,17%,20,-2.5%
CCOC(=O)Cc1cc(=O)[nH]c(/N=C(\N)Nc2ccc(C)cc2C)n1,-9,-3%,13%,-6.1,-11%,12,-0.9%
Cn1nc(C(F)(F)F)c2cc(C(=O)Nc3ccc(F)cc3)sc21,-26,-16%,2%[15.4 µM],-1.3,-2%,3,nt
O=C(NNC(=O)c1ccccc1OCc1ccccc1)c1ccccc1F,-41,4%,-16%,-5.8,7%,1,nt
COCCNC(=S)NN=C1CCCCCC1,1,-7%,-1%,1.4,56µM*,-20,-0.7%
CCOC(=O)c1sc(NC(=O)c2cc(-c3cccc(O)c3)on2)c(C(=O)OCC)c1C,10,-1%,-16%,4.4,10%,3,?
Cc1cc2c(c(=O)o1)C(C13C=CC(CC1)C3)C(C#N)=C(N)O2 (configuration not stated),2,5%,21%,11,0%,-8,-2.7%
CCCc1cc2c(c(NC(C)=O)n1)c(=O)oc1ccccc12,-2,12%,?,1.1,3%,-14,32µM*
COc1cc2nc(C3CCC3)nc(N3CCN(c4ccccc4OC)CC3)c2cc1OC,-8,11%,0%,0.7,-23%,21,-3.4%
O=C(/C=C/c1ccccc1)Nc1cc(C(=O)O)cc(C(=O)O)c1,11,6%,5%,0.5,11%,-14,0.4%
CC(C)(C)C(=O)CSc1nnc(Nc2ccccc2)s1,-16,9%,-2%[15.4 µM],-0.7,7%,2,1.4%
CC(C)(C)C1COc2ccccc2N1C(=O)c1cccc(Cl)c1 (configuration not stated),-10,2%,-20%[15.4 µM],-2.8,14%,-23,1.3%
Cc1nonc1NC(=O)CSc1nc2ccccc2[nH]1,-1,-1%,20%,-0.8,8%,-9,-1.5%
O=C(CSc1cccc[n+]1[O-])c1ccc(Cl)cc1,1,-4%,4%,-3.4,5%,-4,-0.9%

# Screens (PubChem)
